Compound activity (PubChem)
miR-21 reporter = miR-21 reporter, rising signal; HeLa miR-21 FLuc reporter, luciferase, 48 h; Potency, µM (highest dose often 38.3 µM), for the others: top-dose reporter change, positive = more light; 340,000 tested, under 10 active; active = well fitted rising curve with a large enough effect; inconclusive = small, poorly fitted or top-dose-only effect; inactive = no such curve, though single readings can be large or run the other way;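 note: % of control where 0% means no effect; miR-21 action dims this reporter so a rising signal means less miR-21 action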
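HeLa cells endogenously expressing miR-21, stably carrying CMV-driven firefly luciferase with a downstream miR-21 binding site, 2000 cells/well. Titrations up to approximately 40 uM, 48 hours; luciferase luminescence read.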
An asterisk follows results filed as active; ? = inconclusive.

miR-21 reporter,Compound
16%,CCOC(=O)C1=C(CN2CCN(c3ccc(OC)cc3)CC2)NC(=O)NC1c1ccc(OC)cc1 (stereo unspecified)
?,Cc1ccc(C)c(NC(=O)Cn2cc(C(=O)c3cccs3)c3ccccc32)c1
5%,CCc1ccc(-n2c(=O)c3sc4ccccc4c3n(CC(=O)N3CCCC3)c2=O)cc1
-7%,CCN(CC)c1nc(-c2ccccc2Cl)c2cc(Br)ccc2n1
17%,CCOC(=O)c1ccc(NC(=O)CSc2nc3c(c(=O)[nH]2)CN(Cc2ccccc2)CC3)cc1
22%,O=C(Nc1ccc(F)c(Cl)c1)c1cc(S(=O)(=O)N2CCc3ccccc3C2)ccc1F
-5%,Cc1ccc(NC(=O)CCS(=O)(=O)c2ccc3c(c2)oc(=O)n3C)c(Br)c1
20%,Cc1ccc(Cl)cc1N1CCN(C(=O)C2CCN(S(=O)(=O)c3cccc4nonc34)CC2)CC1
-60%,CC(=O)c1cccc(NC(=O)c2noc3c2CC(C)CC3)c1 (stereo unspecified)
-6%,CCC(C)NC(=O)CSc1nc2n[nH]c(C)c2c(=N)n1-c1ccc(C)c(Cl)c1 (stereo unspecified)
9%,O=C1CN(C(=O)c2ccc(S(=O)(=O)N3CCCC3)cc2)C(c2ccc(F)cc2)c2cc(F)ccc2N1 (stereo unspecified)
6%,CCC(=O)N1CCc2cc(S(=O)(=O)NCCC(=O)Nc3ccc(CC)cc3)ccc21
-2%,O=C(NCCc1csc(-c2ccc(C(F)(F)F)cc2)n1)C(=O)Nc1cc(F)ccc1F
-7%,CCn1cc(C(=O)NCc2ccccc2Cl)c(=O)c2cc(S(=O)(=O)N3CCCCC3)ccc21
13%,CCOC(=O)c1ccc(NC(=O)Cn2c3ncccc3c(=O)n2-c2ccc(C)c(C)c2)cc1

Reprinted at random: 5 records from the list.
miR-21 reporter,Compound
5%,CCc1ccc(-n2c(=O)c3sc4ccccc4c3n(CC(=O)N3CCCC3)c2=O)cc1
-7%,CCN(CC)c1nc(-c2ccccc2Cl)c2cc(Br)ccc2n1
17%,CCOC(=O)c1ccc(NC(=O)CSc2nc3c(c(=O)[nH]2)CN(Cc2ccccc2)CC3)cc1
16%,CCOC(=O)C1=C(CN2CCN(c3ccc(OC)cc3)CC2)NC(=O)NC1c1ccc(OC)cc1 (stereo unspecified)
-7%,CCn1cc(C(=O)NCc2ccccc2Cl)c(=O)c2cc(S(=O)(=O)N3CCCCC3)ccc21

(cont.)
miR-21 reporter,Compound
-8%,Cc1cc(-c2ccc(C)c(S(=O)(=O)N3CCN(c4cccc(C(F)(F)F)c4)CC3)c2)on1
-5%,CCCCSCCCNC(=O)CN1C(=O)COc2ccc(S(=O)(=O)N3CCC(C)CC3)cc21
-2%,COc1ccc(CCNC(=O)C(=O)NCC(c2ccc3c(c2)OCO3)N2CCOCC2)cc1OC (stereo unspecified)
1%,CCCCNC(=O)CCCn1c(=O)c2ccccc2n(Cc2ccc(Cl)cc2)c1=O
13%,Cc1ccccc1CN1c2ccccc2S(=O)(=O)c2ccccc21
4%,Cc1nc(CC(=O)Nc2ccc(C(N)=O)cc2)cs1
1%,CCOc1ccccc1-n1c(N)c(C(=O)OC)c2nc3ccccc3nc21
-1%,CCOC(=O)c1c(NC(=O)COc2cc(C)ccc2C(C)C)sc2c1CCCC2
9%,COc1cc(OC)cc(-n2c(=O)c3ccccc3n(Cc3ccccc3C#N)c2=O)c1
7%,CC(=O)c1ccc(NC(=O)CCn2nc(C)c(S(=O)(=O)N3CCC(C)CC3)c2C)cc1
6%,CCOC(=O)c1c(NC(=O)C(C)Sc2cn(CCNC(=O)c3ccc(OCC)cc3)c3ccccc23)sc2c1CCC2 (stereo unspecified)
2%,CN(C)CCNC(=O)Cn1nc(N2CCN(c3ccccc3)CC2)ccc1=O
-32%,CCCCCCn1c(/C=C/c2ccccc2)nc2ccccc21
0%,Cc1cccc(CSCCNC(=O)C2CCN(S(=O)(=O)Cc3ccccc3)CC2)c1
-6%,CCOc1ccc(-c2cc3nc(C4CCN(C(=O)OC(C)(C)C)CC4)c(C(=O)Nc4ccc(C)cc4C)cn3n2)cc1

Continuation:
miR-21 reporter,Compound
-2%,CCn1c2ccccc2c2cc(NC(=O)COc3cccc(C)c3)ccc21
-6%,Cc1ccc(N(CC(=O)Nc2ccc(Br)cc2)S(=O)(=O)c2cccs2)cc1
-3%,CCc1ccccc1NCc1nnc2n1CCCCC2
7%,Cc1ccc(CN(Cc2ccco2)C(=O)COc2cccc(C)c2C)o1
-17%,COc1ccc(-c2cc(C(=O)Oc3cccc(C)c3)c3ccccc3n2)cc1
-2%,Cc1ccc(NC(=O)CN2C(=O)CSc3ccc(S(=O)(=O)N4CCCC4)cc32)c(C)c1
-3%,Cc1ccc(Cl)cc1N1CCN(C(=O)CCSCc2ccccc2F)CC1
11%,CC(=O)N1c2ccc(S(=O)(=O)N3CCC(C(=O)Nc4cccc(Cl)c4C)CC3)cc2CC1C (stereo unspecified)
?,COc1ccc(C2c3c(-c4ccc(F)cc4)n[nH]c3C(=O)N2c2ccccc2)cc1OC (stereo unspecified)
6%,COCCCNC(=O)c1ccc(-n2c(-c3ccccc3)cc3c2CCCCC3)cc1
-14%,CCOc1ccc(C(=O)Nc2cccc(NC(=O)c3ccco3)c2)cc1Cl
-5%,CN(C(=O)Cn1cnc2onc(-c3ccc(F)cc3)c2c1=O)c1ccccc1Cl
-4%,Cc1cc(C)n(-c2nnc(Nc3ccc(C)c(C)c3)c3ccccc23)n1
10%,Cc1cccn2c(=O)c3cc(C#N)c(=O)n(-c4nnc(SCc5ccc(Cl)cc5)s4)c3nc12
-4%,CCc1c(C)sc(NC(=O)C2c3ccccc3Oc3ccccc32)c1C(=O)OC(C)C

Two of the compounds above, in CSV form.
canonical_smiles,miR-21 reporter
CCn1c2ccccc2c2cc(NC(=O)COc3cccc(C)c3)ccc21,-2%
Cc1ccc(N(CC(=O)Nc2ccc(Br)cc2)S(=O)(=O)c2cccs2)cc1,-6%

Next structures.
miR-21 reporter,Compound
-38%,Cc1cccc(-c2nc(SCCCOc3ccccc3Cl)n3[nH]c(=O)cc3n2)c1
-9%,Cc1ccccc1C(=O)Nc1cccc(OCc2cc(=O)n3cccc(C)c3n2)c1
0%,COc1ccc(NC(=O)CCc2c(C)nc3c(c2C)c(=O)n(C)c(=O)n3C)c(OC)c1
-5%,O=C(CCCCn1c(=O)c2ccccc2n(CC(=O)Nc2ccccc2)c1=O)NCc1ccccc1Cl
-1%,CC(C)(C)c1ccc(C(=O)N2CCN(Cc3cc(=O)n4nc(-c5ccccc5F)sc4n3)CC2)cc1
2%,CCc1ccc(C2=NN(CCC(=O)NCCc3ccc(OC)c(OC)c3)C(=O)CC2)cc1
-20%,CC(C)c1nnc(N2C(=O)c3oc4ccccc4c(=O)c3C2c2cccc(O)c2)s1 (stereo unspecified)
26%,Cc1nc2ccn(Cc3cccs3)c(=O)c2cc1C(=O)N1CCN(c2ccccc2F)CC1
22%,O=C(c1ccc(CS(=O)c2ccccc2Cl)o1)N1CCN(c2ccccc2F)CC1 (stereo unspecified)
-2%,O=S(=O)(Nc1nc2ccccc2nc1Nc1ccccc1Br)c1ccccc1
19%,COc1cc(-c2noc(-c3ccc(NCc4ccccc4)c([N+](=O)[O-])c3)n2)cc(OC)c1OC
6%,COc1cccc(NC(=O)Cn2cc(C(=O)C3CCCCC3)c3ccccc32)c1
-20%,COc1ccccc1CNC(=O)c1ccc2c(c1)nnn2C1CCCC1
5%,COC(=O)c1c(NC(=O)c2ccc(S(=O)(=O)N3CCCCC3)cc2)sc2c1CCN(C)C2
-46%,CC(=O)c1c(C)nc2nc(-c3ccccc3)nn2c1C

Later entries
miR-21 reporter,Compound
8%,Cc1ccccc1OCCCCn1nnc2sc3c(c2c1=O)CCC(C)C3 (stereo unspecified)
-4%,Cc1ccc(-n2nc(C(=O)N(C)c3ccccc3Cl)c3c4ccccc4n(C)c3c2=O)cc1
10%,COc1ccccc1C(=O)Nc1ccccc1OCc1cc(=O)n2ccccc2n1
6%,O=C1COc2cc(S(=O)(=O)CCC(=O)N3CCN(c4cccc(Cl)c4)CC3)c(Cl)cc2N1
-10%,Cc1cc(C)cc(NC(=O)Cc2csc(COc3cccc(C)c3)n2)c1
5%,COc1ccc(C)c2sc(NC(=O)c3ccc(S(=O)(=O)N4CCOCC4)cc3)nc12
-14%,CCCCc1ccc(-n2nc3cc(C)c(NC(=O)Cc4ccccc4)cc3n2)cc1
-15%,COc1ccc(-c2[nH]ncc2C(=O)NCc2ccccc2C)cc1
9%,Cc1ccc(-n2c(=O)c3c(cnn3C)n(CC(=O)Nc3c(C)cccc3C)c2=O)cc1
29%,Cc1nc2cc(-c3cccc(F)c3)nn2c(C)c1CCC(=O)Nc1ccccc1C(N)=O
12%,Cc1cc2n(n1)CCC(=O)N2Cc1ccc(C(=O)Nc2ccc(F)cc2F)cc1
-36%,C=CCc1ccccc1OCCSc1nc(-c2cccs2)nc2cc(=O)[nH]n12
?,COc1ccc2cc3c(N)nn(C(=O)c4ccc(F)cc4Cl)c3nc2c1
-2%,Cc1ccc(NC(=O)CCCN2C(=O)COc3ccc(C)cc32)c(C)c1
5%,CCC1CCCCN1C(=O)Cn1c(=O)n(-c2ccc(Cl)c(Cl)c2)c(=O)c2c(C)c(C(=O)N(C)C)sc21 (stereo unspecified)

Other compounds:
miR-21 reporter,Compound
-1%,Cc1c2cnn(-c3ccccc3)c(=O)c2c(C)n1CC(=O)Nc1ccccc1Br
-4%,COc1cc(OC)c(NC(=O)COCc2cc(-c3cccs3)on2)cc1Cl
-3%,COC(=O)c1c(NC(=O)C2c3ccccc3Oc3ccccc32)sc2c1CCC(C)C2 (stereo unspecified)
-2%,Cc1nn(-c2ccccc2)c(OC(=O)c2ccc(Cl)cc2)c1S(=O)(=O)c1ccccc1
?,Cc1ccc(NC(=O)CSCc2cnn(-c3ccccc3)c2-n2cccc2)c(C)c1
8%,O=C(CN1CCN(Cc2ccc(Cl)cc2)C1=O)NCc1ccc(F)cc1
-4%,CC(C)c1ccc(NC(=O)c2cccn2-c2nnc(N3CCCCC3)s2)cc1
-1%,CN(C)c1ccc(C(CNS(=O)(=O)c2ccc(Br)cc2)N2CCCC2)cc1 (stereo unspecified)
1%,CCOc1ccc(NC(=O)c2c(NCc3cccs3)sc3c2CCC(C)C3)cc1 (stereo unspecified)
?,CC(C)(C)C(=O)Nc1ccc(-c2nc3ccccc3s2)cc1
9%,Cc1ccc(NC(=O)COc2ccc(-c3nn(C)c(=O)c4ccccc34)cc2)c(C)c1
1%,COc1ccc(Cl)cc1NC(=O)C1CCN(c2ncnc3c2nc2n3CCCCC2)CC1
26%,COc1cc(NC(=O)C2CCN(c3nc4ccccc4nc3C(F)(F)F)CC2)cc(OC)c1
4%,CCOC(=O)c1c(S(=O)(=O)N2CCC(C(=O)Nc3ccc(OCC)cc3)CC2)c(C)n(C)c1C
-6%,CN1C(=O)Cc2cc(S(=O)(=O)NCc3ccccc3Cl)ccc21

Part of the list above, bar-delimited.
structure | miR-21 reporter
CC(C)c1ccc(NC(=O)c2cccn2-c2nnc(N3CCCCC3)s2)cc1 | -4%
CN(C)c1ccc(C(CNS(=O)(=O)c2ccc(Br)cc2)N2CCCC2)cc1 (stereo unspecified) | -1%
CCOc1ccc(NC(=O)c2c(NCc3cccs3)sc3c2CCC(C)C3)cc1 (stereo unspecified) | 1%

(list continues)
miR-21 reporter,Compound
3%,CCOC(=O)c1c(C)oc2nc(C)nc(Nc3ccc(C)c(Cl)c3)c12
-2%,COc1ccc(CCNC(=O)c2cc(=O)c3c(C)cc(C)cc3o2)cc1OC
16%,Cc1cc(C)c2c(n1)SCC(=O)N2CC(=O)Nc1cccc(C)c1C
10%,Cc1cc(C)c2c(NC(=O)c3ccccc3Cl)c(C(=O)NCc3ccc(Cl)cc3)sc2n1
7%,Cc1ccccc1Cn1cc(CCC(=O)NC(C)c2ccccc2)c2ccccc21 (stereo unspecified)
0%,CCOc1ccccc1-c1nc(Cn2c(=O)cc(C)c3c(C)nn(-c4ccccc4)c32)c(C)o1
1%,Cc1c(-c2ccccc2)c(=O)oc2c(CN3CCN(C)CC3)c(O)ccc12
-2%,Cc1ccc2c(c1)sc1nc(-c3cc4cc(Cl)ccc4oc3=O)cn12
-9%,COc1ccc(NC(=O)Cc2csc(COc3cccc(C)c3)n2)c(OC)c1
-42%,O=C(Nc1cc(Cl)ccc1O)c1cc(-c2ccc3c(c2)OCO3)on1
-2%,COc1ccccc1NC(=O)C1=C(C)Nc2nc(SCc3ccccc3Cl)nn2C1c1ccncc1 (stereo unspecified)
-3%,CCC(C)NS(=O)(=O)c1ccc(N2CCCCS2(=O)=O)cc1 (stereo unspecified)
-8%,CCc1cc(C(=O)Nc2cnn(Cc3ccccc3C)c2)no1
0%,CSc1cccc(NC(=O)N2CCN(S(=O)(=O)c3ccc4c(ccn4C)c3)CC2)c1
-1%,CCOc1ccc(NS(=O)(=O)c2ccc3[nH]cc(C(=O)NCc4ccccc4)c(=O)c3c2)cc1

New compounds follow
miR-21 reporter,Compound
-31%,CCOc1ccc2nc(N3CCCC(C(=O)NCCCOC)C3)sc2c1 (stereo unspecified)
10%,O=S(=O)(c1ccc(F)cc1)N1CCC(Oc2cccc(C(F)(F)F)c2)CC1
-8%,O=C(NCCc1ccccc1)c1cc(-c2ccc(Br)cc2)on1
9%,Cc1cccc(Nc2nnc(-c3ccc(C)c(S(=O)(=O)N4CCOCC4)c3)c3ccccc23)c1
-4%,Cc1ccccc1C(=O)Nc1sc2c(c1C(=O)N1CCC(C)CC1)CCC(C)C2 (stereo unspecified)
5%,N#Cc1nc(/C=C/c2ccc(F)cc2)oc1N1CCN(c2ccccc2)CC1
9%,Cc1cncn1CCc1nc2c3ccccc3nc(SCC(=O)Nc3ccccc3F)n2n1
18%,CCOc1ccc(C(=O)N2CCN(Cc3cc(=O)n4nc(-c5cccc(OC)c5)sc4n3)CC2)cc1

The list is partial; count on the stated rates, not on these rows.
